# Screens from PubChem.
# Biofilm kill mix: clotrimazole potentiators killing C. albicans biofilm, primary screen, 4-compound mixtures; C. albicans biofilm persisters + clotrimazole, fluorescence viability; primary screen in compound mixtures of four per well; actives 0.02% (n = 120,000); inhibition, % at 7.6 µM;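 active = inhibition above 30.3% in the primary screen of four-compound pools, then above 30% when the compound was retested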;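 note: compounds exposed to preformed 24 h biofilms for 48 h; the number belongs to the whole pool; some results filed as inactive read as strong as hits; inactives centre near 12; 0% = biofilm with clotrimazole alone and 100% = kill control; retested singly at about 60 µM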
#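 Test system: C. albicans biofilms. Buffer or medium: RPMI/MOPS medium, pH 7.0. Timing: 48 h compound exposure at 37 °C. Technique: Alamar Blue fluorescence. Evaluation: percent inhibition of biofilm viability.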
# Starred values were filed as active, the others as inactive. Not all compounds are listed; the hit share may differ from the screen's.
no.	structure	Biofilm kill mix
1	COc1ccc2cc(N=Cc3nc(-c4ccc(C)cc4)oc3O)cnc2c1	13
2	Cc1cc(C)n(CCC(=O)N/N=C/c2ccc(Br)c([N+](=O)[O-])c2)n1	15
3	O=c1nc(N/N=C/C=C/c2ccccc2)cn[nH]1	0
4	O=C(CCNS(=O)(=O)c1cccc2nsnc12)NCc1ccccc1Cl	4
5	CC(C)(C)NCc1cc(Cl)ccc1OCc1cccs1	16
6	CC(C(=O)Nc1ccc(S(=O)(=O)N2CCOCC2)cc1)N1C(=O)C2CC=CCC2C1=O (stereo not drawn)	4
7	Cc1ccc(C2=N/C(=C\c3ccc(OS(=O)(=O)c4ccc(C)cc4)cc3)C(=O)O2)cc1	16
8	CC(=O)NC(=O)c1cnn(-c2ccccc2)c1N	25
9	COc1ccc(Nc2nnc(SCC(=O)c3cc4ccccc4o3)s2)cc1	0
10	Cn1c(=O)c2c(nc(N/N=C/c3ccco3)n2C)n(C)c1=O	18
11	Cc1cccc(OCCCC(=O)Nc2ccc(S(N)(=O)=O)cc2)c1	16
12	Cc1ccn2cc(-c3ccc(NC(=O)c4ccco4)cc3)nc2c1	16
13	O=C(N/N=C/c1ccccn1)c1cccc([N+](=O)[O-])c1	13
14	Cc1cccc(Nc2nnc(-c3ccc(N4CCOCC4)c([N+](=O)[O-])c3)c3ccccc23)c1	21
15	CCN1CCN(C(=O)c2ccc(Cl)c(S(=O)(=O)N3CCCCCC3)c2)CC1	10
16	O=c1c(-c2ccc(Cl)cc2)cnc2n1CCS2	7
17	O=C1C2CC=CCC2C(=O)N1c1ccc(NCCc2ccccc2)c([N+](=O)[O-])c1 (stereo not drawn)	12
18	Cc1ccc(NC(=O)CN(C)C(=O)COc2ccc(C(=O)c3ccc(F)cc3)cc2)cc1	15
19	Cc1ccc(NCc2ccco2)cc1C	10
20	CCS(=O)(=O)N1CCC(C(=O)NCCN2CCOCC2)CC1	8
21	COc1ccc(NC(=O)c2ccsc2NC(C)=O)cc1	14
22	CN(Cc1ccc(-n2cccn2)cc1)Cc1cn(C)nc1-c1ccccc1F	27
23	COc1cc(NC(=O)CSc2nc(C)cc(C)n2)cc(OC)c1OC	2
24	COc1ccccc1NC(=O)CSc1nnc(CSc2nc(C)cc(C)n2)o1	5
25	CC(C)(C)C(=O)N1N=C(c2ccc(NS(C)(=O)=O)cc2)CC1c1cccs1 (stereo not drawn)	17
26	CC(C)(C)NC(=O)CSc1nc2ccc(Nc3nc(N4CCOCC4)nc(N4CCOCC4)n3)cc2s1	-14
27	O=C(CCS(=O)(=O)c1ccccc1)Nc1cccc(-c2nc3ccccc3s2)c1	13
28	CCn1ncc(/C=N\NC(=O)Cc2ccc([N+](=O)[O-])cc2)c1C	16
29	COc1ccc(-c2ccnc3cc(C(=O)O)nn23)cc1	12
30	O=C(N/N=C/c1cccc(F)c1)c1c(O)c2c([nH]c1=O)CCCC2	10
31	CCOC(=O)c1[nH]c2ccccc2c1NC(=O)c1ccc(S(=O)(=O)N(C)C)cc1	15
32	O=C(NNc1ccc(Cl)cc1)C1CCC1	9
33	Brc1ccccc1OCCNCc1ccccc1	5
34	COc1ccc(NC(=O)CSc2ccccc2)cn1	1
35	S=c1nc(C2CCCCC2)n(-c2ccccc2)[nH]1	-15
36	COC(=O)C1=C(C)Nc2nnnn2C1c1ccccc1Cl (stereo not drawn)	-5
37	CC[n+]1cccc(-c2nc3ccccc3s2)c1	13
38	O=C(/C=C/c1ccco1)NCC(=O)N/N=C/c1ccccc1[N+](=O)[O-]	11
39	CC(/C=C/c1ccccc1)=N/NC(=O)c1cnccn1	11
40	Cc1cc(C)cc(NC(=S)N(CCN2CCCCC2)Cc2ccco2)c1	18
41	Cc1cccc(NC(=O)CN2C(=O)CSC2=O)c1	17
42	COc1ccc(Nc2nnc(C)c(=O)[nH]2)c(OC)c1	13
43	O=C(CCC1CCCCC1)NCCN1C2=NC[C@H](Cc3ccc(O)cc3)N2C[C@H]1Cc1ccc(O)cc1	10
44	O=C(NCC1CCCO1)c1ccc(S(=O)(=O)N2CCC(c3nc4ccc(Cl)cc4[nH]3)CC2)cc1 (stereo not drawn)	10
45	Cc1cc(NC(=O)Cc2ccccc2)ccc1NC(=O)c1cccs1	4
46	COc1ccc(-c2nc3ccccc3nc2-c2ccccc2)cc1	-16
47	c1ccc(Nc2nc(-c3ccncc3)nc3ccccc23)cc1	2
48	Cc1ccc(C(=O)OCC2OC3OC(C)(C)OC3C2O)cc1 (stereo not drawn)	23
49	COc1ccc(NC(=S)NCc2ccc3c(c2)cc(C)n3C)cc1	11
50	Cc1cc(C(=O)CCl)c(C)n1-c1c(C)n(C)n(-c2ccccc2)c1=O	5
51	COc1ccc(C(=O)C[n+]2ccc(N(C)C)cc2)cc1	21
52	Cc1ccc(CN2CCN(/N=C/c3cccn3C)CC2)c(C)c1	16
53	CC(C)C(NC(=O)c1ccccc1F)C(=O)OCC(=O)c1ccc(F)cc1 (stereo not drawn)	5
54	Cc1ccc(S(=O)(=O)NC2(C(F)(F)F)NC(=O)N(CCc3ccccc3)C2=O)cc1 (stereo not drawn)	13
55	COc1ccccc1/C=N/NC(=O)CO	4
56	CC1CC2=C(C(=O)O1)C(c1ccccc1)Nc1ccccc1N2 (stereo not drawn)	14
57	CCCCCCN(C(=O)CCCCCN1C(=O)NC(c2ccc([N+](=O)[O-])cc2)C(C(=O)OCc2ccccc2)=C1C)C(C(=O)NCCCC)c1ccc(OCC(=O)OC)c(C(=O)OC)c1 (stereo not drawn)	8
58	COc1cc(/C=C2\C(=O)N(c3ccc(S(N)(=O)=O)cc3)N=C2C)ccc1OC(=O)c1ccco1	20
59	COC(=O)CSc1ccc(S(=O)(=O)N2CCC(C)CC2)cc1[N+](=O)[O-]	11
60	Cc1ccc(-c2c(C(=O)N(C)Cc3ccccc3)oc(=O)c3ccccc23)cc1	11

# Exported with each value named: part of the list above
42) COc1ccc(Nc2nnc(C)c(=O)[nH]2)c(OC)c1
  Biofilm kill mix = 13
43) O=C(CCC1CCCCC1)NCCN1C2=NC[C@H](Cc3ccc(O)cc3)N2C[C@H]1Cc1ccc(O)cc1
  Biofilm kill mix = 10
44) O=C(NCC1CCCO1)c1ccc(S(=O)(=O)N2CCC(c3nc4ccc(Cl)cc4[nH]3)CC2)cc1 (stereo not drawn)
  Biofilm kill mix = 10
45) Cc1cc(NC(=O)Cc2ccccc2)ccc1NC(=O)c1cccs1
  Biofilm kill mix = 4

# Remaining list, next part:
no.	structure	Biofilm kill mix
61	O=C1c2cccc3cccc(c23)C(=O)N1CCN1CCN(C(=S)Nc2ccc(F)cc2)CC1	11
62	Cc1sc2ncn(CC(=O)NCc3ccco3)c(=O)c2c1-c1ccc(F)cc1	7
63	CCCN1CNC(=S)N(c2ccccc2OC)C1	11
64	CC1(C(=O)Nc2cccc3ccccc23)CC1(Br)Br (stereo not drawn)	13
65	CCC(=O)N(C)CCc1cc2c(c(OC)c1/C=N/NC(=O)c1ccc(Br)cc1)OCO2	22
66	O=C(COC(=O)CCc1ccc(S(=O)(=O)N2CCOCC2)cc1)NC1CCCCCC1	4
67	C/C(CC(=O)Nc1ccc(C)c(Cl)c1)=N\NC(=O)c1ccco1	8
68	O=[N+]([O-])c1cccc(-c2ccc(/C=N/NC(=S)Nc3cccc(F)c3)o2)c1	19
69	O=C(NNC(=S)NC1CCCCC1)c1cccc(S(=O)(=O)Nc2ccccc2Cl)c1	1
70	CC(C)(C)c1ccc(C(=O)Nc2ncn[nH]2)cc1	29
71	O=C(NNC(=O)C1CC1c1ccccc1)Nc1ccccc1 (stereo not drawn)	14
72	COCCNC(=O)/C(C#N)=C1\N=C(N)c2ccccc21	15
73	Cc1ccc(S(=O)(=O)NCC[C@@]2(C)C3CCC2(C)C(=O)C3)cc1 (stereo partly drawn)	23
74	O=c1n(Cc2ccccc2F)c2ccccc2n1Cc1ccccc1F	13
75	O=S(=O)(c1ccccc1)n1cc(-c2ccccn2)c(N2CCOCC2)n1	7
76	Cc1ccc(NC(=O)c2ccc(OC(=O)C(C)Oc3ccc(Cl)cc3C)cc2)cc1 (stereo not drawn)	1
77	CC(=O)c1ccc(-c2cc([C@H]3[C@H]4C=CC[C@@H](C)[C@@H]4C(=O)N3Cc3ccccc3)ccc2F)cc1	18
78	COc1ccc(CCN2C(=O)CC(C(C)c3ccccc3)C2=O)cc1OC (stereo not drawn)	7
79	COCC1CCCN(Cc2cn(-c3ccccc3)nc2-c2ccc3c(c2)OCO3)C1 (stereo not drawn)	5
80	COc1cccc(C(=O)Oc2cc(C)[nH]c(=O)c2[N+](=O)[O-])c1	14
81	C=CCn1c(C(CCCC)CC(C)O)n[nH]c1=S (stereo not drawn)	18
82	Cn1/c(=N\NC(=O)c2ccccc2Cl)sc2ccccc21	28
83	COCCNC(=S)N1CCN(S(C)(=O)=O)CC1	28
84	COc1ccc(NC(=O)C2CCN(C(=O)Cc3ccccc3)CC2)cc1OC	-10
85	C/C(=N\NC(=O)CN1CCN(Cc2ccccc2)CC1)c1ccncc1	17
86	Cc1ccc(-n2nnnc2SCC(=O)NC2CCCc3ccccc32)c(C)c1 (stereo not drawn)	16
87	O=C(/C=C/c1c(Cl)nc2ccccn12)N1CCN(c2ccc(F)cc2)CC1	7
88	Cc1ccc(NC(=O)/C(C#N)=C/c2ccccc2C(F)(F)F)cc1	0
89	Cc1cc(O)c(C(C)C)cc1NC(=O)c1ccccc1Cl	19
90	COc1ccc(/C=N/n2c(=O)[nH]c3c([nH]c4ccc(F)cc43)c2=O)cc1CN1CCCCC1	14

# Among those listed so far, four contain bromine:
no.	structure	Biofilm kill mix
2	Cc1cc(C)n(CCC(=O)N/N=C/c2ccc(Br)c([N+](=O)[O-])c2)n1	15
33	Brc1ccccc1OCCNCc1ccccc1	5
64	CC1(C(=O)Nc2cccc3ccccc23)CC1(Br)Br (stereo not drawn)	13
65	CCC(=O)N(C)CCc1cc2c(c(OC)c1/C=N/NC(=O)c1ccc(Br)cc1)OCO2	22

# Next records
no.	structure	Biofilm kill mix
91	CCOc1ccc(S(=O)(=O)NCCC(=O)OCC(=O)c2ccc[nH]2)cc1	24
92	CC(C(=O)Nc1ccccc1C(=O)O)n1c(C(F)(F)F)nc2ccccc21 (stereo not drawn)	9
93	O=C(N/N=C/c1ccc(O)cc1)c1cc(-c2ccc3c(c2)OCO3)n[nH]1	25
94	CC(C)N(c1nnc(N)s1)C(C)C	11
95	Cc1cc(C)c(N=C2CCCN2Cc2ccccc2)c(C#N)c1	14
96	O=C(c1ccccc1Cl)N1CCC(O)(c2cccnc2)CC1	17
97	C=C(C)C(=O)Nc1cccc(C2=NOC3(C2)C[C@@H](C(N)=O)N(C(=O)C(=C)C)C3)c1 (stereo partly drawn)	13
98	COc1ccc(NC(=O)NNC(=O)c2ccccc2-n2cccc2)cc1OC	21
99	O=C(COC(=O)c1ccc2ccccc2c1)NCCCc1ccccc1	14
100	CC1CN(C(=O)c2ccc(CNS(=O)(=O)c3cccc(C(F)(F)F)c3)cc2)CC(C)O1 (stereo not drawn)	7
101	CC(=O)Nc1ccc(NC(=O)CCC(=O)OCC(=O)c2cccc([N+](=O)[O-])c2)cc1	21
102	CC(=O)c1ccc(NC(=S)NNC(=O)NC2CCCCC2)cc1	11
103	CC(C)(C)C(=O)COC(=O)c1cc(-c2cccnc2)nc2ccccc12	-7
104	O=C1c2ccccc2C(=O)C1c1ccc(O)cc1	12
105	COc1ccc(C(=O)CSc2ncnc3nc[nH]c23)cc1	3
106	CCN(CC)C(=O)C(=O)c1cccn1-c1cccc(OC)c1C#N	13
107	COc1cccc(NC(=O)N2CCC(n3nnc4ccccc43)CC2)c1	10
108	CCc1cccc(CC)c1NC(=O)NC1CCCCC1	7
109	Cc1nnc(SCC(=O)N/N=C/c2cc(Cl)c(O)c(Cl)c2)s1	15
110	COCCNC(=O)CSc1ccccc1C(=O)O	11
111	CC(C)(C)NC(=S)N/N=C/c1cc(Br)c(O)c(Br)c1	10
112	Cc1nn(C)cc1CNC(=O)c1cccc(Br)c1	12
113	COc1cccc(OC)c1C(=O)OCC(=O)NCC(C)C	16
114	CC(C)(C)C(=O)Nc1nnc(COc2ccc(Cl)cc2)s1	16
115	Cc1ccc(C2NC(=O)NC(O)(C(F)(F)F)C2C(=O)c2cccs2)o1 (stereo not drawn)	19
116	CC(=O)N/C(=C\c1ccc(F)cc1)C(=O)NC(Cc1ccccc1)C(=O)O (stereo not drawn)	15
117	Cc1nn(-c2ccccc2)c2c1C(c1ccc(Cl)cc1)N(c1ccccc1)C(=O)N2 (stereo not drawn)	6
118	Cc1ccc(SCCOCCN2CC(C)OC(C)C2)cc1 (stereo not drawn)	22
119	O=C(CN1c2ccccc2Sc2ccccc21)N/N=C/c1ccc([N+](=O)[O-])cc1	20
120	CCN(CC)S(=O)(=O)c1cc(C(=O)Oc2cccc(-c3cnc4ccccc4n3)c2)ccc1OC	14
121	CCOC(=O)N1CCN(c2ccc(F)cc2[N+](=O)[O-])CC1	17
122	CC(=O)Nc1ccccc1OCC(=O)NC(C)c1ccc(F)cc1 (stereo not drawn)	16
123	CCS(=O)(=O)Nc1ccc(C2=NN(C(=S)Nc3ccccc3)C(c3ccco3)C2)cc1 (stereo not drawn)	-2
124	O=C(Nc1ccccc1)Nc1ccc(F)c([N+](=O)[O-])c1	19
125	CCOc1cccc(/C(O)=C2/C(=O)C(=O)N(CCN3CCOCC3)C2c2cccnc2)c1 (stereo not drawn)	9
126	CCC(=O)Nc1cccc(C2=NOC3(C2)C[C@@H](C(N)=O)N(C(=O)COc2ccc(Cl)cc2)C3)c1 (stereo partly drawn)	2
127	CCN(CC(O)COCc1ccc(Cl)cc1)C1CCCCC1 (stereo not drawn)	15
